Screening results (PubChem BioAssay)
miR-21 FLuc: miR-21 reporter, rising signal; HeLa miR-21 FLuc reporter, luciferase, 48 h; AID 2288; 340,000 tested, under 10 active; Potency, µM (doses to about 38.3 µM), inactives show at the highest dose reporter change, positive = more light; active = well fitted rising curve with a large enough effect; inconclusive = small, poorly fitted or top-dose-only effect; inactive = no such curve, though single readings can be large or run the other way;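 note: % of control where 0% means no effect; miR-21 action dims this reporter so a rising signal means less miR-21 action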
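Compounds were titrated across several concentrations (up to approximately 40 uM) and incubated 48 hours with HeLa miR-21-FLuc reporter cells (miR-21 target sequence downstream of FLuc, endogenous miR-21). Readout was firefly luciferase luminescence after lytic detection reagent.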
Active calls of the source: *; ? = inconclusive. These rows are one share of the data; count on the stated rates, not on these rows.

miR-21 FLuc | SMILES
23% | O=C(CCS(=O)(=O)c1cc(Br)cc2c1N(C(=O)C1CC1)CC2)N1CCN(c2cccc(C(F)(F)F)c2)CC1
-14% | Cc1ccc2oc(-c3ccc(C)c(NC(=O)c4ccc(N5CCC(C)CC5)c([N+](=O)[O-])c4)c3)nc2c1
? | CCS(=O)(=O)c1ccc(O)c(Nc2cc(C)nc(SC)n2)c1
-2% | Cn1cc(S(=O)(=O)N2CCCC2)cc1C(=O)Nc1ccc(C(F)(F)F)cc1
12% | Clc1ccc(CNc2ncnc3onc(-c4ccc(Cl)cc4)c23)cc1
24% | CC(C)(C)c1ccc(C2NC(=O)c3n[nH]c(-c4cccs4)c32)cc1 (centres undefined)
15% | COc1ccccc1N1CCN(S(=O)(=O)CCNC(=O)COc2ccc(C(C)C)cc2)CC1
? | CCOC(=O)N1CCc2c(sc(NCc3cccs3)c2C(=O)Nc2ccc(OC)cc2OC)C1
? | Cc1ccc2c(CNCCc3ccc(Cl)cc3)c(C(=O)O)n(Cc3ccc(F)cc3)c2c1
15% | O=C(CN1C(=O)CCSc2ccc(S(=O)(=O)N3CCCC3)cc21)Nc1cccc(Cl)c1
4% | Cn1ncc2c(N3CCN(c4ccc(F)cc4)CC3)ncnc21
3% | CCN(C(=O)CCc1nc(-c2ccc(C)cc2)no1)c1cccc(Cl)c1
22% | CCOC(=O)C1CCCN(C(=O)Cn2ncc3c4ccccc4n(C)c3c2=O)C1 (centres undefined)
-2% | O=C(Nc1ccc(-c2nc3cc(NC(=O)c4ccc(Cl)cc4)ccc3o2)cc1)c1ccc(Cl)cc1
-1% | COc1cccc(NC(=O)CCN2CCN(CCO)CC2)c1
7% | CCN(CC)S(=O)(=O)c1ccc2c(c1)N(CC(=O)N1CCN(c3ccc(F)cc3)CC1)C(=O)CO2
2% | COc1cccc2sc(N(Cc3cccnc3)C(=O)c3ccc(S(=O)(=O)N(C)C)cc3)nc12
-10% | COc1ccc(-c2nn(-c3ccccc3)cc2C2NC(=O)NC(C)=C2C(=O)OC(C)C)cc1OC (centres undefined)
-6% | CC(C)(C)c1ccc(OCC(=O)Nc2ccc(C(=O)OC3CCCCC3)cc2)cc1
0% | CC(=O)Nc1c(C)nn(-c2ccccc2)c1N1CCC(C(=O)Nc2ccc(Cl)cc2C)CC1
-4% | CCCSc1nnc(NC(=O)Cc2coc3cc(C)ccc23)s1
2% | Cc1nnc2c(N3CCN(c4ccccc4)CC3)nc3ccc(C(=O)c4ccccc4)cc3n12
8% | COC(=O)c1ccc(CN(Cc2ccc(OC)c(OC)c2)S(=O)(=O)c2cc(C(=O)Nc3cccc(C)c3)ccc2F)cc1
-2% | CCOC(=O)c1cnc(N2CCN(c3cccc(C)c3C)CC2)c2ccccc12
? | CS(=O)(=O)N1CCc2cc(C(=O)Nc3ccc(Cl)c(C(F)(F)F)c3)ccc21
12% | CCOc1ccc(CCNC(=O)c2ccc3c(c2)N(Cc2ccccc2)C(=O)c2ccccc2S3=O)cc1OCC (centres undefined)
-9% | O=C(CSc1nc2ccccc2nc1Cc1ccc(Cl)cc1)N1CCCCC1
-10% | CCCCOc1ccc(C(=O)Nc2onc3c2CCCC3)cc1
3% | COc1ccc(C)cc1Nc1nc2ccccc2c2nnc(C)n12
-26% | COc1ccc(OC)c(NC(=O)c2cc3c(s2)-c2ccccc2SC3)c1
-1% | O=C(NCc1ccccc1Br)C1CCCN(C(=O)N2CCOc3ccccc32)C1 (centres undefined)
15% | Cc1cc(OCC(=O)N2CCC(c3nc4ccccc4s3)CC2)ccc1Cl

Seven compounds picked at random from the list so far:
miR-21 FLuc | SMILES
? | CS(=O)(=O)N1CCc2cc(C(=O)Nc3ccc(Cl)c(C(F)(F)F)c3)ccc21
15% | Cc1cc(OCC(=O)N2CCC(c3nc4ccccc4s3)CC2)ccc1Cl
-10% | CCCCOc1ccc(C(=O)Nc2onc3c2CCCC3)cc1
-9% | O=C(CSc1nc2ccccc2nc1Cc1ccc(Cl)cc1)N1CCCCC1
-26% | COc1ccc(OC)c(NC(=O)c2cc3c(s2)-c2ccccc2SC3)c1
12% | CCOc1ccc(CCNC(=O)c2ccc3c(c2)N(Cc2ccccc2)C(=O)c2ccccc2S3=O)cc1OCC (centres undefined)
-1% | O=C(NCc1ccccc1Br)C1CCCN(C(=O)N2CCOc3ccccc32)C1 (centres undefined)

Later entries.
miR-21 FLuc | SMILES
-2% | CCCN1CCN(c2ncnc3sc(C(=O)Nc4cccc(Cl)c4C)c(C)c23)CC1
7% | Cn1cc(S(=O)(=O)N2CCCCCC2)cc1C(=O)N1CCN(c2ccc(Cl)cc2)CC1
11% | COc1ccccc1CNC(=O)c1cc2cc(S(=O)(=O)N3CCCCC3)ccc2n1C
6% | Cc1cccc(-c2nc(CS(=O)CC(=O)NCc3ccc(Cl)cc3)c(C)o2)c1 (centres undefined)
16% | Cc1cc(C)cc(C(=O)N2CC(=O)Nc3ccc(Br)cc3C2c2ccccc2)c1 (centres undefined)
26% | COC(=O)c1sccc1S(=O)(=O)N(CC(=O)Nc1ccccc1C)c1ccc(Cl)cc1
2% | COc1ccc(-c2nc3ccccc3n3c(-c4ccccc4)c4c(=O)n(C)c(=O)n(C)c4c23)cc1OC
-16% | O=C(c1cccc(Cl)c1)N1CCC(c2nc3c(nnn3Cc3ccc(F)cc3F)c(=O)[nH]2)CC1

Of the compounds above, these contain two or more sulfur atoms:
miR-21 FLuc | SMILES
? | CCS(=O)(=O)c1ccc(O)c(Nc2cc(C)nc(SC)n2)c1
? | CCOC(=O)N1CCc2c(sc(NCc3cccs3)c2C(=O)Nc2ccc(OC)cc2OC)C1
15% | O=C(CN1C(=O)CCSc2ccc(S(=O)(=O)N3CCCC3)cc21)Nc1cccc(Cl)c1
2% | COc1cccc2sc(N(Cc3cccnc3)C(=O)c3ccc(S(=O)(=O)N(C)C)cc3)nc12
-4% | CCCSc1nnc(NC(=O)Cc2coc3cc(C)ccc23)s1
-26% | COc1ccc(OC)c(NC(=O)c2cc3c(s2)-c2ccccc2SC3)c1
26% | COC(=O)c1sccc1S(=O)(=O)N(CC(=O)Nc1ccccc1C)c1ccc(Cl)cc1

Continued.
miR-21 FLuc | SMILES
? | CCOC(=O)c1ccc(N2C(=O)c3n[nH]c(-c4ccco4)c3C2c2cccc(O)c2)cc1 (centres undefined)
26% | CCN(C(=O)Cn1cc(S(=O)(=O)Cc2ccccc2Cl)c2ccccc21)c1ccccc1
? | Cc1ccccc1OCCSc1nc2ccc(NC(=O)c3ccco3)cc2s1
12% | CCC12CN3CC(CC)(CN(C1)C3c1cccc(OC)c1O)C2=O (centres undefined)
-10% | CCc1ccc2oc(-c3cccc(NC(=O)c4ccc(N5CCC(C)CC5)c([N+](=O)[O-])c4)c3)nc2c1
7% | CC1=C(C(=O)Nc2cccnc2)C(c2cccc(F)c2)n2nc(SCc3ccccc3F)nc2N1 (centres undefined)
-5% | COc1ccc(CCNC(=O)Cn2nnc(-c3ccc(Cl)cc3)n2)cc1OC
8% | COc1ccc(N2CCN(C(=O)CCS(=O)(=O)c3cc(Br)cc4c3N(C(=O)C3CC3)CC4)CC2)cc1
3% | CCc1ccc(OC(=O)CSc2nnc(-c3ccc(OC)c(OC)c3)o2)cc1
6% | COc1ccc(-c2cc3nc(C)c(CCC(=O)N4CCN(c5cc(C)ccc5C)CC4)c(C)n3n2)c(OC)c1
-40% | CSc1nc(C)cc(Nc2cccc(C(=O)O)c2)n1
7% | COc1ccc(C(=O)Nc2nnc(S(=O)(=O)N(C)c3ccc(Cl)cc3)s2)cc1OC
-12% | Cc1cccc(C2CC(=O)Oc3c2c(=O)n(C)c2ccccc32)c1 (centres undefined)
26% | Cc1ccc(NC(=O)c2cc(S(=O)(=O)NCCC3=CCCCC3)ccc2F)cc1C
17% | CCC(NC(=S)NC1CCCCC1)c1ccccc1 (centres undefined)
-37% | Cc1oc2ncnc(N3CCOCC3)c2c1C(=O)NCCc1ccccc1
-1% | CCN(CC)S(=O)(=O)c1cc(-c2onc(C)c2C)ccc1OC
15% | Cc1cc(C)c(NC(=O)CSc2nccn2-c2cccc(Cl)c2)c(C)c1
-9% | CCOc1ccc(N2CC(c3nc4ccccc4n3CCOc3ccc(OC)cc3)CC2=O)cc1 (centres undefined)
16% | Cc1ccc(Cl)cc1N1C(=O)N(Cc2ccc(C#N)cc2)c2ccccc2S1(=O)=O
-4% | Cc1ccc(NC(=O)CSc2nncn2C)c(C)c1
-2% | CCOC(=O)c1ccc2c(c1)N(CC(=O)Nc1ccc(CC)cc1)C(=O)c1ccccc1S2
-9% | COc1ccc(NC(=O)C(=O)NCCc2csc(-c3ccc(Cl)cc3)n2)cc1OC
? | CC(C)S(=O)(=O)c1oc(-c2cccs2)nc1S(=O)(=O)c1ccc(F)cc1

As entered above.
CCOC(=O)C1CCCN(C(=O)Cn2ncc3c4ccccc4n(C)c3c2=O)C1 (centres undefined) in miR-21 FLuc shows 22%
Cn1cc(S(=O)(=O)N2CCCCCC2)cc1C(=O)N1CCN(c2ccc(Cl)cc2)CC1 in miR-21 FLuc shows 7%

(list continues)
miR-21 FLuc | SMILES
-3% | Cc1ccc(NC(=O)CN2CCCN(Cc3ccccc3Cl)S2(=O)=O)c(C)c1
30% | CCCOc1ccc(C(=O)NCC(c2ccc(OC)cc2)N2CCCCC2)cc1 (centres undefined)
-8% | COc1cccc(NC(=O)c2cccc3c(=O)c4c([nH]c23)CCCC4)c1
-5% | CCOc1cccc(CC(=O)N2CCc3c([nH]c4ccc(OC)cc34)C2c2ccc(F)cc2)c1OCC (centres undefined)
-21% | O=C(COc1ccc(F)cc1)Nc1ccc2nc(SCc3ccccc3)sc2c1
11% | CCOC(=O)c1cc(-c2ccccc2)n(CCC(=O)NCCc2ccccc2)c1C
3% | CCc1ccccc1NC(=O)c1cc(S(=O)(=O)N2CCC(C)CC2)cn1C
7% | Cc1ccc(C)c(CN2C(=O)c3ccccc3Sc3ccc(C(=O)NCc4cccs4)cc32)c1
1% | COc1cc(-c2cc3n(C)c(C)c(CCC(=O)NC4CCC(C)CC4)c(=O)n3n2)cc(OC)c1OC (centres undefined)
26% | O=C(NCc1ccccc1)N1CCc2c(sc3c2CCCC3)C1c1ccccc1 (centres undefined)
8% | COc1ccc(-n2cc(-c3ccccc3)nc2SCC(=O)Nc2ccccc2C)cc1
-52% | COc1ccc(-c2cc3ccc(O)c(CN4CCCC4)c3oc2=O)cc1OC
4% | COc1ccc(CCC(=O)NCc2ccc3c(c2)CCN3C(=O)c2cccc(C)c2)cc1
-2% | O=C(CC1Oc2ccc(Cl)cc2NC1=O)NCc1ccccc1 (centres undefined)
0% | CCc1nnc2c3ccccc3nc(N3CCN(c4cc(Cl)ccc4C)CC3)n12
21% | Cc1c(Cl)cccc1NC(=O)Nc1nnc(N(C)C2CCCCC2)s1
-2% | CC(=O)c1ccc(NC(=O)c2sc(-n3nc(C)c(Cc4ccccc4)c3C)nc2C)cc1
16% | Cc1nc2ccccc2n1CCc1nc2c3ccccc3nc(SCC(=O)Nc3cccc(C(F)(F)F)c3)n2n1
-8% | O=C(CCC1N=C2c3ccccc3N=C(SCc3cccc(F)c3)N2C1=O)NCCc1ccccc1 (centres undefined)
5% | COC(=O)CN1C(=O)CSc2ccc(S(=O)(=O)Nc3cccc(Cl)c3C)cc21
-3% | COc1ccc(OC)c(NC(=O)c2csnn2)c1
-1% | Cc1ccc2c(c1)NC(=O)C(CC(=O)Nc1cc(Cl)ccc1C)O2 (centres undefined)
-1% | O=C(Cn1c(=O)n2nc(-c3ccccc3)nc2c2ccccc21)Nc1ccccc1C(F)(F)F
-7% | CCOC(=O)c1cc(-c2ccccc2)n(CC(=O)Nc2ccc(OC)cc2OC)c1C
4% | Cc1cn2c(=O)cc(COC(=O)c3cccc(NC(=O)C(C)Oc4ccccc4)c3)nc2s1 (centres undefined)
-6% | COc1ccc(C2CC(=O)c3cc(-c4nc(-c5cccc(Cl)c5)cs4)c(=O)[nH]c3C2)cc1OC (centres undefined)
-4% | Cc1ccc(C(=O)Nc2ccc(OCc3cc(=O)n4c5c(sc4n3)CCCC5)cc2)cc1
24% | CCN(CC)c1ccc(NS(=O)(=O)c2cc(-c3cc(C)no3)ccc2C)c(C)c1
-6% | O=C(NC1CCCc2ccccc21)c1ccc2c(c1)sc1nc(-c3ccc(F)cc3)cn12 (centres undefined)
10% | CCOC(=O)c1cccc(NC(=O)c2cc(C)nc3c2c(C)nn3-c2ccc(C)cc2)c1
? | CCOC(=O)c1ccc(N2C(=O)c3n[nH]c(-c4ccco4)c3C2c2ccc(O)c(OCC)c2)cc1 (centres undefined)
-11% | CC1CCc2nc3ncn(CC(=O)Nc4cccc(C#N)c4)c(=O)c3cc2C1 (centres undefined)
21% | O=C(CSc1nccn1Cc1ccc(F)cc1)NCc1ccc(F)cc1
? | CCOc1ccc(NC(=O)Cn2ccn(-c3ccc(F)c(F)c3)c(=O)c2=O)cc1
4% | Cc1ccc(NC(=O)CSc2cn(CC(=O)N3CCOCC3)c3ccccc23)cc1Cl
-8% | Cc1cc(C)cc(NC(=O)C(=O)NCC(c2ccc3c(c2)OCO3)N2CCOCC2)c1 (centres undefined)
4% | Cc1c(Cl)cccc1NC(=O)C1CCCN(c2ncnc3onc(C)c23)C1 (centres undefined)
1% | Cc1cc(NC(=O)C2CCN(S(=O)(=O)c3cccc4nsnc34)CC2)ccc1Br
5% | CCC1Oc2ccc(C)cc2N(CC(=O)NCCc2ccccc2)C1=O (centres undefined)
? | CCOc1ccc(-c2nonc2NC(=O)c2oc3ccc(Br)cc3c2C)cc1
-11% | COCCn1c(CCC(=O)Nc2ccc(OC)c(OC)c2)nc2cccnc21
1% | Cc1cc(C)c(NC(=O)C2CCN(c3nn4c(=O)cc(C)nc4s3)CC2)c(C)c1
1% | O=C(NCCc1ccccc1)c1ccc2c(c1)CCN2S(=O)(=O)c1ccccc1
